Avidin bead fluor = avidin bead compound fluorescence profile; Avidin beads, compound fluorescence 488/530 nm, flow cytometry; hits give high values; fluorescence (KMESF) at 10 µM; 0.38% of 220,000 active; AID 1775; in the data active = fluorescence above about 47; also: inactives centre near 10
Rac1 act GTP bind = alters GTP binding to activated mutant human Rac1 | P63000 | GST-Rac1 activated beads, fluorescent GTP binding, flow cytometry; actives lie on both sides; 100% means binding = to untreated wells | percent activity (GTP binding), % at 10 µM | 0.11% of 190,000 active | AID 764;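 active = GTP binding at least 20 percentage points away from the 100% baseline, in either direction, so actives lie on both sides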
Rab2 wt GTP = changes GTP binding to wildtype dog Rab2A, up or down; AID 760; GST-Rab2 wt beads, Bodipy-GTP binding, flow cytometry; 0.19% of 190,000 active; P61105; GTP binding activity, % at 10 µM;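 active = GTP binding activity at least 20 points away from 100%, either lowered or raised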;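 also: 0% = beads with excess unlabeled GTP and 100% = no-compound control corrected for plate trend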
Rac1 wt GTP bind = modulators of human Rac1 wildtype GTP binding | GST-Rac1 beads, fluorescent GTP binding, flow cytometry; actives lie on both sides; 0 = cold GTP competed, 100 = untreated | P63000 | 0.27% of 190,000 active | GTP binding activity (% of control), % at 10 µM;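 active = GTP binding activity at least 20 points away from the 100% control level, either lower or higher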
Cdc42 wt = human Cdc42 wildtype GTP binding change, either direction; AID 761; percent activity (GTP binding), % at 10 µM; 0.2% of 190,000 active; GST-Cdc42 beads, Bodipy-GTP binding, flow cytometry; actives lie on both sides; P60953;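 active = percent activity GTP binding at least 20 points away from the 100% baseline, either down as inhibitor or up as activator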;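 also: median bead fluorescence of bound Bodipy-FL-GTP at 100 nM; 0% = excess unlabeled GTP control and 100% = no compound control; below 100% means less GTP binding so inhibitor and above means activator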
Target sequence (P60953 whole entry, looked up): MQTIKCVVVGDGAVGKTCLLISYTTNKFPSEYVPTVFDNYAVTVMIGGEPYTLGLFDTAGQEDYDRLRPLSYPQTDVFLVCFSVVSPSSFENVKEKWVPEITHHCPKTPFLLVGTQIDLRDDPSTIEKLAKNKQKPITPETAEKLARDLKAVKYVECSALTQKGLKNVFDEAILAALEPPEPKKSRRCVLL
Pf gametocyte = P. falciparum stage V gametocyte viability inhibition; P. falciparum stage V gametocytes, ATP luminescence, 24 h; inhibition, % at 10.9 µM; 0.065% of 150,000 active;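 active = inhibition above the mean plus 3 SD of compounds within the control limits, set per campaign, cut at about 38% in these data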;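 also: 0% = DMSO wells and 100% = medium only without gametocytes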
ABCG2 block = blocks JC-1 efflux by human ABCG2 transporter | Q9UNQ0 | IgMXP3 cells, flow cytometry | inhibition, % at 6.6 µM | 0.1% of 190,000 active | AID 1325;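 active = inhibition above 80%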;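 also: 0% = DMSO and 100% = nicardipine control wells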
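System: two drug-resistant human cell lines, ABCG2 and ABCB1; controls: nicardipine high and DMSO low controls; times: 10 min exposure at 25 °C with rotation, no wash; detection: flow cytometry of retained JC-1 fluorescence; read-out basis: percent efflux inhibition, scaled nicardipine 100% to DMSO 0%; doses: one concentration, 6.6 µM final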
Rab7 wt GTP bind = dog Rab7 wildtype GTP binding, inhibitors and activators; GST-Rab7 beads, fluorescent GTP binding, flow cytometry; actives lie on both sides; untreated = 100%, excess cold GTP = 0%; GTP binding activity (percent of control), % at 10 µM; 0.055% of 190,000 active;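 active = fluorescent GTP binding to Rab7 beads changed by at least 20 points from the 100% baseline, either direction, mostly lower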;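 also: median green fluorescence of bound Bodipy-FL-GTP per Rab7 bead population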
HRas wt GTP bind = modulators of GTP binding to human HRas wildtype; 0.14% of 190,000 active; AID 759; GST-Ras wt beads, Bodipy-FL-GTP binding, flow cytometry; actives lie on both sides; P01112; GTP binding activity, % at 10 µM;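 active = GTP binding activity at least 20% away from the 100% baseline, either lowered as inhibitor or raised as activator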;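 also: 0% = unlabeled GTP competition control and 100% = no-compound control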
Target sequence (P01112 whole entry, looked up): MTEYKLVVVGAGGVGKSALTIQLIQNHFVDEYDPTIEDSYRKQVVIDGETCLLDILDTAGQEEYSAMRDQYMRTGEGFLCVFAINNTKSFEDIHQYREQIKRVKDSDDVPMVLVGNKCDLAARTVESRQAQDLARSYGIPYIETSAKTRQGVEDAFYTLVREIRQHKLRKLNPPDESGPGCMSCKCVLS
ABCB1 inh = inhibitors of human ABCB1 transporter, ABCG2 counter-screen; inhibition, % at 6.6 µM; P08183; CCRF-Adr cells, JC-1 efflux, flow cytometry; AID 1326; 0.067% of 190,000 active; in the data active = inhibition above about 40%;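 also: 0% = vehicle and 100% = reference inhibitor; higher value means more JC-1 retained so stronger ABCB1 efflux block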
The depositor's hits bear a star; / = no result given. Not all compounds are listed. The share of hits here may be higher or lower than overall.

SMILES	Avidin bead fluor	Rac1 act GTP bind	Rab2 wt GTP	Rac1 wt GTP bind	Cdc42 wt	Pf gametocyte	ABCG2 block	Rab7 wt GTP bind	HRas wt GTP bind	ABCB1 inh
O=C(c1ccco1)N1CCN(c2ncnc3sc4c(c23)CCC4)CC1	33	97.0	96.0	100.0	98.0	/	9.2	98.0	97.0	2.2
C[C@H](NS(=O)(=O)c1ccc(Cl)cc1)C(=O)OCC(=O)c1ccc[nH]1	9	/	/	/	/	-0.7	/	/	/	/
COc1ccc2[nH]c(C)c(C(=O)CN3CC(C)OC(C)C3)c2c1 (stereo not given)	37	92.0	94.0	95.0	96.0	8.9	3.1	96.0	95.0	0.5
COc1cc([N+](=O)[O-])ccc1-c1ccc(C(=O)Nc2ccc(NC(C)=O)cc2)o1	10	96.0	96.0	98.0	101.0	1.6	-1.8	98.0	96.0	-0.8
CCC(=O)Nc1nc2c(OC)ccc(C)c2s1	7	97.0	98.0	102.0	100.0	/	4.6	102.0	100.0	0.6
O=c1cc(CN2CCN(c3ccccc3)CC2)c2c(ccc3ccccc32)o1	55*	99.0	100.0	100.0	101.0	/	2.3	103.0	99.0	1.1
Cc1cc(CSc2ccccc2)ccc1NC(=O)COc1ccccc1C	12	101.0	100.0	103.0	102.0	/	5.0	102.0	100.0	0.9
CC(C)NC(=O)COC(=O)c1cc(F)c(F)cc1Cl	18	97.0	103.0	101.0	100.0	/	0.4	105.0	103.0	0.4
N#CC(c1ccccn1)(c1ncc(C(F)(F)F)cc1Cl)N1CCOCC1 (stereo not given)	12	101.0	101.0	109.0	108.0	-0.9	1.2	100.0	104.0	0.2
COC(=O)Nc1ccc2c(c1)N(C(=O)CCN1CCN3CCCC3C1)c1ccccc1S2 (stereo not given)	24	96.0	97.0	94.0	100.0	-7.7	4.2	99.0	99.0	7.5
COc1ccc(-n2c(=S)[nH]c3cc(C(=O)Nc4ccc(OC)c(OC)c4)ccc3c2=O)cc1	8	102.0	104.0	106.0	103.0	/	-1.3	101.0	105.0	-0.3
COC(=O)c1ccc2c(=O)[nH]c(CSc3nnc(C(F)(F)F)n3C)nc2c1	6	99.0	99.0	104.0	100.0	2.4	1.6	103.0	102.0	0.2
Cc1c(/C=N/NC(N)=O)c2ccccn2c1C(=O)c1ccc(F)cc1	3	94.0	92.0	85.0	95.0	-18.9	12.0	95.0	95.0	0.7
CCOC(=O)c1cc2c(ccn2-c2ccc(F)cc2)n1CC(=O)N1CCN(C(=O)c2ccco2)CC1	24	93.0	94.0	96.0	92.0	/	6.7	94.0	93.0	4.5
O=S(=O)(Cc1c(F)cccc1Cl)c1ncn[nH]1	7	95.0	99.0	96.0	95.0	12.6	-0.6	102.0	94.0	-0.4
Cc1ccc(NC2=C(Cl)C(=O)OC2NC(=O)c2ccccc2)cc1 (stereo not given)	22	100.0	100.0	106.0	103.0	11.5	2.7	100.0	102.0	0.1
Cc1ncccc1C(=O)N1CCCC(CNC(=O)C2(c3ccc(Cl)cc3)CC2)C1 (stereo not given)	9	95.0	98.0	102.0	99.0	12.7	1.5	99.0	98.0	0.5
Cc1cc(C(F)F)n2ncc(C(=O)O)c2n1	15	102.0	107.0	106.0	107.0	/	-0.2	101.0	107.0	0.1
Cc1ccnc(NC(=O)c2cccc(NC(=O)COc3ccccc3)c2)c1	31	97.0	96.0	98.0	100.0	1.1	6.9	96.0	98.0	1.2
COc1ccccc1-n1c(-c2ccc(NS(C)(=O)=O)cc2)n[nH]c1=S	13	97.0	97.0	101.0	101.0	/	3.6	100.0	98.0	0.4
CCCCn1nnnc1NCc1cccnc1	15	104.0	105.0	114.0	106.0	/	0.2	105.0	107.0	0.1
COC(=O)C1=NN(c2ccc(OC)cc2)C2C(=O)N(c3ccccc3OC)C(=O)C12 (stereo not given)	7	/	/	/	/	-8.4	/	/	/	/
COc1ccc(C2CC(=O)C(CS(=O)(=O)c3ccccc3)C(=O)C2)cc1 (stereo not given)	17	95.0	93.0	92.0	93.0	0.1	-1.9	91.0	92.0	-0.7
COC(=O)NNC(=S)NCc1ccc(C)cc1	7	98.0	97.0	100.0	101.0	2.3	-1.8	99.0	98.0	0.0
CC(C)(C)NC(=O)CN(C(=O)CCN1CCCc2ccccc21)C(C)(C)C	37	99.0	100.0	98.0	101.0	/	2.8	101.0	99.0	1.0

Avidin bead fluor: entries above that show a hit
SMILES,Avidin bead fluor,Rac1 act GTP bind,Rab2 wt GTP,Rac1 wt GTP bind,Cdc42 wt,ABCG2 block,Rab7 wt GTP bind,HRas wt GTP bind
O=c1cc(CN2CCN(c3ccccc3)CC2)c2c(ccc3ccccc32)o1,55*,99.0,100.0,100.0,101.0,2.3,103.0,99.0

The results go on.
SMILES	Avidin bead fluor	Rac1 act GTP bind	Rab2 wt GTP	Rac1 wt GTP bind	Cdc42 wt	Pf gametocyte	ABCG2 block	Rab7 wt GTP bind	HRas wt GTP bind	ABCB1 inh
CC(NC(=O)CCc1ccc(S(=O)(=O)NC2CCCCC2)cc1)c1ccccc1 (stereo not given)	8	100.0	100.0	103.0	102.0	9.9	0.5	100.0	100.0	0.6
CCN(CC)C(=O)Cn1c(=O)c2ccccc2n2c(=S)sc(-c3cccc(C)c3)c12	16	101.0	103.0	102.0	99.0	4.2	-1.5	102.0	98.0	1.2
CCCCNC(=O)CCC(=O)Nc1ncc(-c2ccc(C)cc2)n1C	8	98.0	97.0	103.0	100.0	/	-1.6	101.0	100.0	-2.1
COc1cc(NC(=O)c2csc(N)n2)cc(C(=O)Nc2cccc(C(F)(F)F)c2)c1	7	/	/	/	/	7.3	/	/	/	/
O=C(O)c1ccc(N=Cc2nc(-c3ccco3)oc2O)cc1	13	95.0	100.0	96.0	99.0	-20.9	-0.4	103.0	97.0	-0.1
O=[N+]([O-])c1ccc(S(=O)(=O)Nc2nc3ccccc3nc2Nc2ccccc2)cc1	23	94.0	93.0	95.0	95.0	8.0	1.2	93.0	94.0	0.8
CCn1c(COc2ccc(Cl)cc2)nnc1SCC(=O)Nc1ccc2c(c1)OCO2	10	99.0	101.0	100.0	101.0	0.1	17.4	99.0	98.0	0.8
COC(=O)CN1C(=S)N(C)C(=O)C1CC(=O)Nc1ccccc1 (stereo not given)	6	100.0	103.0	104.0	105.0	-1.2	-2.2	103.0	105.0	-0.3
O=[N+]([O-])c1cccc(/C=C/c2nc3ccc([N+](=O)[O-])cc3[nH]2)c1	7	102.0	104.0	105.0	110.0	10.2	2.1	102.0	106.0	0.2
CCCCNc1nc(N(C)c2ccccc2)nc(-n2ccnc2)n1	19	95.0	97.0	97.0	98.0	-35.1	8.3	94.0	98.0	1.3
Cc1ccc(NC(=O)c2cnn(-c3ccccc3)c2NC(=O)c2ccco2)cc1C	24	96.0	102.0	104.0	106.0	/	2.2	104.0	105.0	0.6
COc1ccc(NC(=O)c2sc(Cl)nc2-c2ccccc2)cc1	13	101.0	101.0	106.0	104.0	-13.7	-3.6	102.0	103.0	-0.4
C/C(=N\NC(=O)c1ccc(NS(=O)(=O)c2cccs2)cc1)c1ccncc1	10	94.0	100.0	99.0	103.0	/	2.7	98.0	99.0	0.5
Cc1cc(O)c(NC(=O)c2cccc([N+](=O)[O-])c2)cc1C	/	/	/	/	/	4.4	/	/	/	/
CCOC(=O)c1cnc(C(C)(C)C)[nH]c1=O	20	101.0	103.0	106.0	105.0	14.5	3.9	99.0	101.0	0.9
COc1ccc(CCCC(=O)NCc2ccccc2)cc1C	2	105.0	102.0	102.0	103.0	-3.4	2.7	99.0	102.0	0.8
COc1ccccc1N1C(=O)C2C(C(=O)c3ccccc3)=NN(c3ccc(C)cc3)C2C1=O (stereo not given)	5	/	/	/	/	5.5	/	/	/	/
C=CCn1c(CNC(=O)c2ccccc2F)nnc1SCc1nc2ccccc2c(=O)[nH]1	/	94.0	95.0	90.0	94.0	-16.2	2.5	93.0	95.0	0.3
O=C(N/N=C/c1nn(-c2ccccc2)cc1-c1ccccc1)c1ccncc1	4	97.0	96.0	104.0	97.0	-1.2	5.2	98.0	97.0	1.3

Pulled one by one from the entries so far:
SMILES	Avidin bead fluor	Rac1 act GTP bind	Rab2 wt GTP	Rac1 wt GTP bind	Cdc42 wt	Pf gametocyte	ABCG2 block	Rab7 wt GTP bind	HRas wt GTP bind	ABCB1 inh
COc1ccc(CCCC(=O)NCc2ccccc2)cc1C	2	105.0	102.0	102.0	103.0	-3.4	2.7	99.0	102.0	0.8
CCN(CC)C(=O)Cn1c(=O)c2ccccc2n2c(=S)sc(-c3cccc(C)c3)c12	16	101.0	103.0	102.0	99.0	4.2	-1.5	102.0	98.0	1.2
O=[N+]([O-])c1ccc(S(=O)(=O)Nc2nc3ccccc3nc2Nc2ccccc2)cc1	23	94.0	93.0	95.0	95.0	8.0	1.2	93.0	94.0	0.8
O=C(N/N=C/c1nn(-c2ccccc2)cc1-c1ccccc1)c1ccncc1	4	97.0	96.0	104.0	97.0	-1.2	5.2	98.0	97.0	1.3
CCOC(=O)c1cnc(C(C)(C)C)[nH]c1=O	20	101.0	103.0	106.0	105.0	14.5	3.9	99.0	101.0	0.9
CC(NC(=O)CCc1ccc(S(=O)(=O)NC2CCCCC2)cc1)c1ccccc1 (stereo not given)	8	100.0	100.0	103.0	102.0	9.9	0.5	100.0	100.0	0.6

Screens (PubChem BioAssay)
